# Source: PubChem (several laboratories)
# BJeLR viability = kills HRASV12-expressing BJeLR cells; 300,000 tested, 0.17% active; AID 1554; inhibition, % (concentration not given with the values); BJeLR (HRASV12) viability, CellTiter-Glo ATP luminescence, 48 h; reference of the scale not given here;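 active = replicate mean above 50%; inconclusive = above 50% but judged a plate artefact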;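 also: 50 nL library stock added to about 25 µL; numbers are from one replicate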
# Sa RN4220 lethal = kills Staphylococcus aureus RN4220; S. aureus RN4220 growth, OD600, 16 h; 330,000 tested, 0.33% active; inhibition, % (no concentration beside the values);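 active = z-score of -3 or lower and OD600 up to 0.18 on both plates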;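 also: plate controls were untreated cells for no effect and reference antibiotic for full effect; stock transfer was 100 nL into about 80 µL; one replicate is shown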
# Autofluor counter = flagged as autofluorescent in microsphere protease counterscreen; compound autofluorescence counterscreen, microsphere flow cytometry; hits give high values; fluorescence intensity (no concentration beside the values); 360,000 tested, 3.1% active;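 active = at least 3 SD above the mean of all compounds, about 16000 in these data; inconclusive = too few beads counted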;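 also: 100 nL of 1 mM stock went into each well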
# PrP UTR inh = inhibition of PrP 5' UTR reporter expression. cell-based PrP 5' UTR mRNA reporter, plate reader. inhibition, % (concentration not given with the values). 340,000 tested, 0.35% active. AID 488862;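 active = every replicate at 50% or more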;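 also: 0 = median of the neutral control wells; tested in H4 reporter cells; numbers are from one replicate; inactives centre near -14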
# Mtb hypoxia rep = reduces hypoxia-regulated biosensor signal in M. tuberculosis. 300,000 tested, 0.1% active. fluorescence inhibition, % (concentration not given with the values). M. tuberculosis hypoxia-regulated fluorescent reporter, fluorescence;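 active = 35 to 45% if threefold the growth effect, above 45% if 1.5-fold the growth effect; inactive = the rest, general growth blockers included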;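 also: wells of about 50 µL received 100 nL stock; 0% = vehicle wells and 100% = reference inhibitor wells; whole bacteria with a GFP reporter of the hypoxia response; strong numbers were not always called active; many hits fall short of the cut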
# Sa ugtP lethal = compounds lethal to S. aureus RN4220 ugtP deletion mutant; OD600 growth, 16 h; some inactives read as strong as hits; growth inhibition, % (no concentration beside the values); 330,000 tested, 0.54% active; AID 1259309;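 active = z-score under -3 and OD600 up to 0.15 on both plates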;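 also: plate controls were untreated wells for no effect and antibiotic for full effect; wells of about 80 µL received 100 nL stock; the first replicate is given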
# Mtb hypoxia rep growth = further read-out of Mtb hypoxia rep, marked with its call; growth inhibition, %; measured here: M. tuberculosis growth (absorbance);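 0% = vehicle and 100% = reference antibiotic; read after six days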
# * marks the source's active call; other numbers are inactive results; ? = inconclusive; nt = not tested or not shown. The order is random. Share with any hit: about 4%.
SMILES,BJeLR viability,Sa RN4220 lethal,Autofluor counter,PrP UTR inh,Mtb hypoxia rep,Mtb hypoxia rep growth,Sa ugtP lethal
O=C(CN1C(=O)c2ccccc2S1(=O)=O)Nc1cc(S(=O)(=O)N2CCCCC2)ccc1Cl,nt,2.9,4872,0,1,2,3
O=C(Nc1ccc(Cl)c(Cl)c1)N(CCCN1CCOCC1)Cc1cccs1,-6,-1.8,5639,0,7,6,5
O=C(NCc1ccc(F)cc1)N1CCc2ccccc2C1,-6,-3.3,5623,-20,22,8,-1
COc1cc2c(cc1OC)C(COc1ccccc1OC)N(C(=O)C(C)(C)C)CC2 (stereo unspecified),-10,0.0,3778,-14,-14,7,1
Cc1nc2ccccc2nc1SCC(=O)c1ccccc1,4,11,2450,10,15,6,6
Cc1cccn2cc(CNS(=O)(=O)c3cccc(F)c3)nc12,-4,-13,6677,-2,-1,10,-1
CC(C)C[C@H]1CN=C(Nc2ccccc2)N1CC1CCC(C)CC1 (stereo partly specified),-8,nt,3595,-17,nt,nt,nt
CC(=O)N/N=C/c1ccc(OCCOc2ccc(Br)cc2)cc1,11,nt,10259,-12,nt,nt,nt
CN=C1SC(C(=O)Nc2ccccc2Cl)CC(=O)N1c1ccc(OC(F)(F)Cl)cc1 (stereo unspecified),-10,3.7,4230,-14,-4,5,2
CCOC(=O)c1cnc2ccc(OCC)cc2c1NCCCN1CCOCC1,-1,-2.0,4433,-6,-4,-3,-10
COc1cccc(NC(=O)CSc2nccn(-c3ccc4c(c3)OCCO4)c2=O)c1,-1,2.0,?,-10,0,-5,11
NCCCN1CCN(c2ccccc2)CC1,0,1.0,4458,-10,6,-5,6
COc1ccc(C(=O)OCC(=O)NCc2ccco2)cc1OC,2,3.4,2836,-7,15,12,-9
OCCCNC(c1ccccc1)c1ccc(O)cc1 (stereo unspecified),nt,2.1,4617,-18,nt,nt,-2
CCOC(=O)c1[nH]c2ccccc2c1NC(=O)CC(C)(C)C,7,0.3,5661,-5,1,10,8
COc1ccc(N2CCN(C(=O)c3ccc(NS(=O)(=O)c4ccc(F)cc4)cc3)CC2)cc1,-2,-4.6,3986,-15,nt,nt,8
Cc1cc(Cl)ccc1OC(C)C(=O)NCCCn1ccnc1 (stereo unspecified),7,3.7,4743,-21,21,5,8
O=C(Nc1ccccc1)c1cc(N2CCOCC2)nc2ccccc12,8,7.9,?,-12,4,10,11
Cc1c(C=NO)sc2ccccc12,nt,6.0,nt,nt,-3,-4,4
COc1ccc(/C=C/c2nc3ccccc3n2Cc2ccccc2OC)cc1,2,5.9,2565,-101,-7,-4,15
COC(=O)c1cc(NC(=O)c2cc(-c3ccccc3Cl)oc2C(F)(F)F)ccc1N1CCOCC1,-1,19,3964,-26,-2,3,3
CCCSc1cc(N2CCCC2)nc(-c2ccccc2)n1,9,-0.6,2299,-7,0,-8,27
OC(COc1ccc2c(c1)CCC2)CN1CCN(c2cccc(Cl)c2)CC1 (stereo unspecified),7,7.0,4534,-18,nt,nt,4
CCN(CC)c1ccc(/C=C2\C(=N)N3N=C(CC(=O)N4CCOCC4)SC3=NC2=O)cc1,-9,9.0,6398,-20,8,11,11
O=C(COc1ccccc1)N(Cc1ccco1)C1CCS(=O)(=O)C1 (stereo unspecified),-8,7.1,8434,-27,14,5,1
Cc1ccc(C(=O)N/C(=C\c2ccccc2)C(=O)NCc2ccncc2)cc1,-4,1.7,4295,5,17,15,0
CCCCN1C(=O)CN(CCc2ccccc2)C(=O)C1c1ccc(OC)cc1 (stereo unspecified),0,0.8,11074,-8,4,5,2
COc1ccc(OC)c(NC(=O)NNC(=O)CCCOc2ccc(Cl)cc2C)c1,6,7.8,4466,-17,0,2,6
CC(C)c1ccc(NC(=O)c2csnn2)cc1,1,6.2,11529,nt,15,3,6
CCOc1ccc(N)cc1,nt,2.5,2752,-4,0,3,5

# A draw from above in order of heavy-atom count, ascending.
SMILES,BJeLR viability,Sa RN4220 lethal,Autofluor counter,PrP UTR inh,Mtb hypoxia rep,Mtb hypoxia rep growth,Sa ugtP lethal
CCOc1ccc(N)cc1,nt,2.5,2752,-4,0,3,5
Cc1c(C=NO)sc2ccccc12,nt,6.0,nt,nt,-3,-4,4
NCCCN1CCN(c2ccccc2)CC1,0,1.0,4458,-10,6,-5,6
OCCCNC(c1ccccc1)c1ccc(O)cc1 (stereo unspecified),nt,2.1,4617,-18,nt,nt,-2
O=C(NCc1ccc(F)cc1)N1CCc2ccccc2C1,-6,-3.3,5623,-20,22,8,-1
Cc1cccn2cc(CNS(=O)(=O)c3cccc(F)c3)nc12,-4,-13,6677,-2,-1,10,-1
O=C(COc1ccccc1)N(Cc1ccco1)C1CCS(=O)(=O)C1 (stereo unspecified),-8,7.1,8434,-27,14,5,1
O=C(Nc1ccccc1)c1cc(N2CCOCC2)nc2ccccc12,8,7.9,?,-12,4,10,11
OC(COc1ccc2c(c1)CCC2)CN1CCN(c2cccc(Cl)c2)CC1 (stereo unspecified),7,7.0,4534,-18,nt,nt,4
COc1ccc(/C=C/c2nc3ccccc3n2Cc2ccccc2OC)cc1,2,5.9,2565,-101,-7,-4,15
COc1ccc(OC)c(NC(=O)NNC(=O)CCCOc2ccc(Cl)cc2C)c1,6,7.8,4466,-17,0,2,6
CN=C1SC(C(=O)Nc2ccccc2Cl)CC(=O)N1c1ccc(OC(F)(F)Cl)cc1 (stereo unspecified),-10,3.7,4230,-14,-4,5,2
O=C(CN1C(=O)c2ccccc2S1(=O)=O)Nc1cc(S(=O)(=O)N2CCCCC2)ccc1Cl,nt,2.9,4872,0,1,2,3
COC(=O)c1cc(NC(=O)c2cc(-c3ccccc3Cl)oc2C(F)(F)F)ccc1N1CCOCC1,-1,19,3964,-26,-2,3,3

# Next part.
SMILES,BJeLR viability,Sa RN4220 lethal,Autofluor counter,PrP UTR inh,Mtb hypoxia rep,Mtb hypoxia rep growth,Sa ugtP lethal
O=C(O)c1ccc(-n2nnnc2SCc2ccccc2F)cc1,1,-1.4,4378,-3,nt,nt,13
COc1cc(C(c2sc3nc(C)nn3c2O)N2CC(C)OC(C)C2)cc(OC)c1OC (stereo unspecified),-1,-8.3,6204,-23,9,9,-3
COc1ccc(C2CC(c3ccccc3OC(=O)/C=C/c3ccccc3)=NN2C(C)=O)cc1 (stereo unspecified),-5,2.1,3663,-24,8,6,17
CCCCn1c(N)c(N(CCOC)C(=O)C2CCN(S(=O)(=O)c3ccc(C)cc3C)CC2)c(=O)[nH]c1=O,0,0.2,4137,5,11,1,5
Cc1csc(NC(=O)CSc2ccc(-c3ccccc3)nn2)n1,-1,nt,3234,-25,nt,nt,nt
COc1ccc(N(CC(=O)Nc2cccc(C(F)(F)F)c2)S(=O)(=O)c2c(C)[nH]c(=O)[nH]c2=O)cc1,-2,3.1,4152,-14,-1,-1,9
COc1ccccc1N1CCN(C(CNC(=O)Oc2ccccc2)c2cccnc2)CC1 (stereo unspecified),6,2.7,3754,-6,4,8,1
Cc1ccc(NS(=O)(=O)c2ccc(N3CCN(c4ccc(O)cc4)CC3)c([N+](=O)[O-])c2)c(C)c1,-7,0.6,7498,0,-4,-4,-15
CCOC(=O)C(CC)Sc1ncnc2c1nnn2-c1ccc(F)cc1 (stereo unspecified),-7,-3.0,3470,-10,13,12,34
NC(=O)CC(NC(=O)Cc1ccc(Br)cc1)c1ccc(NCCN2CCCC2)c([N+](=O)[O-])c1 (stereo unspecified),2,-1.4,3931,-10,8,3,0
C=C1C(=O)[C@@]23C[C@H]4[C@@H]5[C@@]6(C)CCC[C@@]57[C@@H]2[C@@H](O)[C@@H]1C[C@H]3[C@H]7N4C6,3,2.9,5281,-15,nt,nt,-4
Cc1cccc(NC(=S)N(Cc2ccco2)C(C)c2cccs2)c1 (stereo unspecified),4,29,4013,-2,4,-6,0
Cc1ccc(C(=O)OCC(=O)NCc2ccc(Cl)cc2Cl)o1,nt,-1.0,5637,-5,5,8,-1
Fc1cnc(Cl)nc1N1CCN(c2ccccc2)CC1,8,4.4,4363,-23,14,16,9
Nc1nonc1-c1nc2ccccc2n1Cc1ccc(F)cc1,6,-0.3,9421,-46,13,9,-6
C=CCN1C(=NC(=O)CC)SC2CS(=O)(=O)CC21 (stereo unspecified),6,-0.7,10812,-1,-6,5,-1
Cc1ccc(Oc2ccc(NC(=O)Cn3ccsc3=N)cc2)cc1,-9,nt,3522,-8,nt,nt,nt
COc1ccc(C(=O)C=CN2CCOCC2)cc1,nt,1.8,nt,nt,2,9,-3
COc1ccc(C(=O)NNC(=O)c2cc3cc([N+](=O)[O-])ccc3oc2=O)cc1OC,-9,7.5,8901,-15,6,7,5
CC(=NNC(=O)c1cc(C)nc2ccccc12)c1cccc(Cl)c1,nt,-2.1,nt,nt,5,3,5
O=C(Nc1ccc2nc(-c3ccccn3)[nH]c2c1)C1CCCCC1,4,0.6,3377,-56,-12,-7,-3
Cc1ccccc1NC(=O)C1CCCN(c2nnc(N3CCCC3=O)s2)C1 (stereo unspecified),-19,-0.5,5668,-10,0,0,1
Cc1c(C)c2ccc(OCC(=O)N3CCC(C(=O)O)CC3)c(C)c2oc1=O,5,3.9,5794,-8,nt,nt,-3
COc1ccc(S(=O)(=O)N2CCOCC2)cc1NC(=O)COC(=O)C1COc2ccccc2O1 (stereo unspecified),10,0.3,2594,-18,-13,-7,5
Cc1nc(C)c(C(=O)C2=C(O)C(=O)N(CCN3CCOCC3)C2c2cccs2)s1 (stereo unspecified),-1,0.9,3580,-2,6,9,-5
Cc1ccc(NC(=O)C2CC(c3ccc(F)cc3)=NO2)cc1 (stereo unspecified),-18,0.0,11146,-24,1,8,-6
COc1ccccc1C(=O)NCC(=O)NNC(=O)C1COc2ccccc2O1 (stereo unspecified),-1,-1.4,nt,-19,9,-2,3
Cc1ccc(COc2ccc(C=NNC(=O)c3ccc(CN4CCOCC4)cc3)cc2)cc1,nt,5.8,nt,nt,16,11,-1
Cc1ccccc1OCCNC(=O)/C=C/c1ccccc1,-3,2.2,2070,-21,-1,-4,-8
Cc1ccc(Nc2c(F)c(F)c(F)c(F)c2C(=O)O)c(C)c1,8,20,3819,-4,8,16,5
CC(C)c1nc(NCC2CCCO2)c(C#N)c2c1COC(C)(C)C2 (stereo unspecified),-6,2.4,4153,-21,nt,nt,9
O=C(CSc1ccccn1)Nc1cccc(S(=O)(=O)N2CCCC2)c1,nt,8.0,6279,-9,7,-4,10
O=C(CSc1nnc(CNC(=O)c2c(F)cccc2Cl)o1)Nc1ccc2c(c1)OCO2,10,2.1,4504,-59,-3,4,4
O=C1C=C(c2ccccc2)OC(c2ccccc2)O1 (stereo unspecified),5,-1.0,4020,-17,12,8,10
CCOc1ccc(C(=O)OC2CC3CCC(C2)N3C)cc1 (stereo unspecified),4,nt,2613,-39,nt,nt,nt
CCc1nn(-c2ccccc2)c(N)c1-c1ccc(OC)c(OC)c1,-6,2.5,2328,-37,nt,nt,-2
CC(=O)c1c(C(C)=O)c(C)n(-c2nc(-c3cccs3)c(C)s2)c1C,9,6.3,3538,8,15,7,8
Cc1ccc(C)c(NC(=O)CCNC(=O)N2C[C@H]3C[C@@H](C2)c2cccc(=O)n2C3)c1,2,2.6,3802,-14,nt,nt,8
COc1cc2c(C(=O)N3CCN(C)CC3)c(C)n(-c3ccccc3)c2cc1Br,-5,2.6,25113*,-31,9,19,13
CC(C)Cc1ccc(C(C)C(=N)N)cc1 (stereo unspecified),3,-4.4,4213,-11,1,10,-3
O=C(Nc1ccc(Cl)cc1C(F)(F)F)c1ccccc1,6,5.2,2190,-33,1,3,8
CN(C)S(=O)(=O)c1ccc(Cl)c(C(=O)OCC(=O)NC(=O)c2cccn2C)c1,-1,3.5,2496,-14,-5,4,1
Cc1ccc(OCCn2nnc3ccccc32)cc1C,-7,9.3,3734,-77,4,25,6
Cc1ccc(-c2csc(NC(=S)NC(=O)c3ccco3)n2)cc1,-12,-3.6,2506,-4,5,5,-4
CCCCc1cc(=O)oc2cc(OCC(=O)N3C[C@H]4C[C@@H](C3)c3cccc(=O)n3C4)c(Cl)cc12,5,1.7,5708,-6,nt,nt,4
